KCNQ2 inh = KCNQ2 potassium channel inhibitors, primary screen, cell-based, CHO-K1, FluxOR thallium flux, B-score (AID 2156); O88943; 20 min; active compounds read low; only compounds with negative scores are shown here; some inactives read as strong as hits; B-score at 10 µM; 310,000 tested, 1.1% active;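 active = fluorescence ratio B-score at most minus 3 library SDs, with starting brightness B-score within 2 library SDs, cut at about -5.5 in these data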
Target sequence (O88943 whole entry, looked up): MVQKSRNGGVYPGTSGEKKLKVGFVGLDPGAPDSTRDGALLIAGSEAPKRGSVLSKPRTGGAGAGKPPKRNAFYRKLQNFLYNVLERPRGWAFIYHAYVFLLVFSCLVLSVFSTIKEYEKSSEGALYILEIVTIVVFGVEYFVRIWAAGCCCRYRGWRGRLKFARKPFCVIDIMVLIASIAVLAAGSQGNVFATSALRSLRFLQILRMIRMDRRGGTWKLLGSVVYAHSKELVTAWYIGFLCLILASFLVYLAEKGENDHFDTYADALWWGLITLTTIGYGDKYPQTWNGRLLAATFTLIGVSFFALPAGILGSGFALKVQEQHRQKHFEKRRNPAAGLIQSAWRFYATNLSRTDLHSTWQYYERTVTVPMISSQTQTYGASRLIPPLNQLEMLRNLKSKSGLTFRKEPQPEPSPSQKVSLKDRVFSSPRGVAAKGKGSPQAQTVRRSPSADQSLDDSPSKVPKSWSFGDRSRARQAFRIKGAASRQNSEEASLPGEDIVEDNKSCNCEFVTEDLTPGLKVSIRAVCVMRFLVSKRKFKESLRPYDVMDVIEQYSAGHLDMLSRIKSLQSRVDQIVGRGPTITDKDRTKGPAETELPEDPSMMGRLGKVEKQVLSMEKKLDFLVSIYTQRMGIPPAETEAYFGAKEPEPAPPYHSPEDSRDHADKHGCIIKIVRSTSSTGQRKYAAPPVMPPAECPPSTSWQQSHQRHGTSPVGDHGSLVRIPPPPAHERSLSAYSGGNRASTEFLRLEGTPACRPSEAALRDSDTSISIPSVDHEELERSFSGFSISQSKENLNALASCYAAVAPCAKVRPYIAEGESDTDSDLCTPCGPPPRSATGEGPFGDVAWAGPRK
KCNQ2 inh baseline = second read-out of KCNQ2 inh, no call of its own (marks repeat the call); B-score; measured here: initial fluorescence intensity artifact check;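 brightness before thallium and not channel activity; 0 = typical well and far values either way flag optical interference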
Numbers without * were called inactive; i = inactive. The list is partial (hit frequency here may not be typical).

SMILES	KCNQ2 inh	KCNQ2 inh baseline
O=C(CCc1nc(-c2ccccc2)c(-c2ccccc2)o1)OCc1ccc(Cl)cc1	i	0.82
COc1ccc(Nc2nc3ccccc3nc2NS(=O)(=O)c2cccs2)c(OC)c1	i	0.08
CC(C)Sc1nc(N2CCOCC2)c2c(c1C#N)CC(C)(C)N(C)C2	i	2.6
Cc1oc(-c2ccc(Cl)cc2)nc1CS(=O)CC(=O)NCCN1CCCC1 (stereo unspecified)	i	0.77
COc1ccc(Oc2nc(C)cc(C)c2C#N)cc1	i	2.4
COc1ccccc1N(C(=O)c1ccncc1)c1nc(-c2ccc([N+](=O)[O-])cc2)cs1	i	-2.3
CCOC(=O)c1ccc(COC(=O)c2ccc3c(c2)-c2ccccc2C3=O)cc1	i	0.96
COc1ccc(CC2(C)OC(c3ccc(Cl)cc3)=NN2C(C)=O)cc1 (stereo unspecified)	i	-0.39
COc1cccc(-c2nc(Cc3ccc(OC)c(OC)c3)no2)c1	i	-1.4
CCN(CC)CC(=O)NN=C(c1ccccc1)c1ccccc1	i	1.7
CC(CN1CCNCC1)(NS(=O)(=O)c1ccccc1)c1ccccc1 (stereo unspecified)	i	0.16
C#C[C@]1(O)CCC2C3CCC4=CC(=O)CC[C@@H]4C3CC[C@@]21C (stereo partly specified)	i	1.6
C/C=C/Cn1c(SCCCc2ccccc2)nc2c1c(=O)[nH]c(=O)n2C	i	-0.12
Cc1nc2c(c(=O)n1CCC(C)C)c1nc3ccccc3nc1n2Cc1ccc2c(c1)OCO2	-6.3*	0.7*
O=C(COc1ccccc1Br)Nc1ccccc1C(F)(F)F	i	0.58
COc1ccc(/C=C/C(=O)c2cc(F)ccc2OC(=O)c2ccc(OC)c(OC)c2)cc1OC	i	0.01
Cc1cc(C(=O)NC2CC(C)(C)Cc3c2cnn3-c2cccc(F)c2)n(C)n1 (stereo unspecified)	i	-0.01
Cc1ccc(Cl)c2c(N=Nc3ccccc3)c(O)[nH]c12	i	2.4
COP(=O)(OC)C(Nc1ccc([N+](=O)[O-])cc1)c1ccccc1 (stereo unspecified)	i	0.06
CC(=O)c1cnc2ncnn2c1C	i	-0.33
Cn1c(N)c(C(=O)CSc2nnc(-c3ccccc3F)n2C2CC2)c(=O)n(C)c1=O	i	1.2
O=C(CNC(=O)c1ccccc1)OCc1cc(=O)n2cc(Br)ccc2n1	i	-0.39
c1ccc(-n2ncc3c(NCc4ccco4)ncnc32)cc1	i	0.69
CC1(C)N(O)CC(c2cccs2)=[N+]1[O-]	i	-0.9
CN(Cc1ccccc1)c1oc(-c2ccco2)nc1C#N	i	1.7

Continuation:
SMILES	KCNQ2 inh	KCNQ2 inh baseline
Cc1ccc(NC(=O)c2ccccc2[N+](=O)[O-])nc1	i	0.8
CC1CC(C)CN(CCCNC(=O)c2ccc3nc(N4CCCCC4)sc3c2)C1 (stereo unspecified)	i	0.38
COc1ccc(S(=O)(=O)N2CCCCCC2)cc1C(=O)N1CCN(c2ccccc2O)CC1	i	0.2
CC(C)c1ccccc1NC(=S)NN(Cc1ccccc1)c1ccccc1	i	0.01
CC(C)C(=O)Nc1nc(-c2ccc([N+](=O)[O-])cc2)cs1	i	6
O=C(NC1CCN(CC(=O)N(c2ccccc2)c2ccccc2)CC1)c1ccc([N+](=O)[O-])cc1	i	-0.22
OCC1(CC2CCCCO2)CCN(C/C=C/c2ccccc2)CC1 (stereo unspecified)	i	-0.77
Cc1cccc(OCC(=O)Nc2ccc(C(=O)NCC(C)C)cc2)c1	i	-0.05
COc1ccccc1-n1c(C)nc(=O)c(-c2ccccc2)c1C	i	-0.83
O=C(CN1CCCN(Cc2ccc(F)cc2)S1(=O)=O)NC1CCCC1	i	0.96
Cc1c(S(=O)(=O)N2CCN(c3ccc(F)cc3)CC2)c(=O)n(C)c(=O)n1C	i	1.4
Cn1c(=O)c2c(nc(NCc3cccnc3)n2Cc2ccc(Cl)cc2)n(C)c1=O	i	-0.83
COCCCNC(=O)CCc1nc(-c2ccccc2Cl)no1	i	2.9
Cc1ccc(NC(=O)COC(=O)Cc2cccs2)c(Br)c1	i	0.53
O=C(Nc1ccccc1)O/N=C/c1ccccc1Cl	i	0.26
Cc1cc(C)c2cc(C(=O)N3CCC(N4CCCCC4)CC3)[nH]c2c1	i	-0.09
COC(=O)c1cc(-c2ccc(C)o2)nc2ccccc12	i	-1.1
O=C(N/C(=C\c1ccc(Cl)cc1)C(=O)N1CCOCC1)c1ccc([N+](=O)[O-])cc1	i	-0.56
C=CCOc1cccc(C2C(C(=O)c3cccs3)=C(O)C(=O)N2Cc2cccnc2)c1 (stereo unspecified)	i	1.1
OCc1ccc(OCCCOc2cccc3cccnc23)cc1	i	0.09
CCOC(=O)c1cn2nc(Oc3ccc(C#N)cc3)ccc2n1	i	0.59
Cc1ccc2c(c1)nnc1nnc(SCC(=O)O)n12	i	4.3
CN1C(=O)c2cccc3c(N(C)C)ccc(c23)C1=O	i	7.8
Cc1ccc(/C=C(/C#N)c2nc(CCN3C(=O)c4ccccc4C3=O)cs2)cc1	i	-0.4
CC(=O)N1CCCc2cc(S(=O)(=O)NCc3ccc(C)cc3)ccc21	i	1.3

The list goes on.
SMILES	KCNQ2 inh	KCNQ2 inh baseline
CN(Cc1ccc(F)cc1)C(=O)COc1ccccc1-c1ccccc1	i	-0.43
COc1ccc(CCNC(=O)CN(Cc2ccc(Cl)cc2)S(C)(=O)=O)cc1OC	i	1.4
CCCN(CC(=O)Nc1ccc(Cl)cc1Cl)C(=O)CC(NC(C)=O)c1ccccc1 (stereo unspecified)	i	-0.98
O=C(Nc1ccc(Cl)cc1)c1ccc2nsnc2c1	i	-0.07
COc1ccc(-c2cc(C(=O)Nc3cc(C)nn3-c3ccccc3)no2)cc1	i	0.07
Cc1cc(Cl)n2c(nc3cc(F)c(F)cc32)c1C#N	-13*	-3.8*
O=C1c2ccccc2C(=O)N1CC(O)COc1ccc(Cl)cc1 (stereo unspecified)	i	-1.2
COc1ccc(-n2nnnc2-c2cnc(N3CCCC3)nc2C(F)(F)F)cc1	i	-0.66
COc1cc(C(=O)NCCCNc2nc3c(C)cc(C)cc3cc2C#N)cc(OC)c1OC	i	3
COCCn1cnc2c(c1=O)c1nc3ccccc3nc1n2/N=C/c1ccco1	i	-0.35
Cc1cc(NC(=O)CSc2nc3ccccc3n2CC(=O)N2CCCCC2)no1	i	0.74
CC(=O)Nc1ccc(OCC(O)Cn2cnc3ccccc32)cc1 (stereo unspecified)	i	2.1
COc1ccccc1NC(=O)CSc1nnc(-c2ccc(NC(C)=O)cc2)n1C	i	0.17
COc1ccccc1-c1nc(C#N)c(N2CCN(Cc3ccccc3)CC2)o1	i	-0.15
O=S(=O)(/C=C/c1ccccc1)N1CCN(Cc2ccc3c(c2)OCO3)CC1	i	-1.5
Cc1cccc(N2CC(C(=O)OCC(=O)c3ccc(OC(=O)c4cccs4)cc3)CC2=O)c1C (stereo unspecified)	i	-0.12
Cc1nc(N2CCN(c3ccccn3)CC2)c2c(C)c(C(=O)Nc3ccc(F)c(Cl)c3)sc2n1	i	-0.43
COc1ccccc1NC(=O)C(=O)N/N=C(\C)CC(=O)Nc1ccc(OCc2ccccc2)cc1	i	-1.1
CCOC(=O)C1CCCN(C(=O)CN2C(=O)NC(C)(c3ccc4ccccc4c3)C2=O)C1 (stereo unspecified)	i	0.01
COc1ccc(CCN(C)CC(=O)Nc2c(C)cc(C)cc2C)cc1OC	i	-0.12
CCOc1ccccc1/C=C(/NC(=O)c1ccccc1)C(=O)N1CCCCC1	i	-2.1
CCc1ccc(C2=NN(CCC(=O)NCc3cccs3)C(=O)CC2)cc1	i	-0.42
Cc1cccc(OCCOC(=O)c2c(-c3ccccc3)noc2C)c1	i	-0.88
OCCc1ccc(O)c(-n2nc3ccccc3n2)c1	i	0.06
COCC(=O)Nc1c(C(=O)N2CCCC2)oc2ccccc12	i	0.51

(next part)
SMILES	KCNQ2 inh	KCNQ2 inh baseline
CCCN(Cc1nnc(-c2ccccc2Cl)o1)C(=O)c1oc2ccccc2c1C	i	0.32
O=C1CC(c2ccccc2)c2cc(O)ccc2O1 (stereo unspecified)	i	-0.27
O=C1CC(=C(c2ccccc2)c2ccccc2)C(=O)N1CCCN1CCN(c2cccc(Cl)c2)CC1	i	0.2
CCn1c(/N=C/c2ccccc2O)nc2ccccc21	i	0.54
Cc1[nH]n(-c2ccccc2)c(=O)c1C=Nc1ccc(S(=O)(=O)Nc2nccs2)cc1	i	3.1
Cn1ncc(Cl)c1C(=O)N1CCN(c2ccccc2)CC1	i	0.06
O=C(c1ccc(Oc2ccc(C(F)(F)F)cc2[N+](=O)[O-])cc1)N1CCOCC1	i	0.06
OC(CSc1c(Cl)cccc1Cl)CN1CCN(c2ccc(F)cc2)CC1 (stereo unspecified)	i	-0.91
CC1=C(C(=O)Nc2ccc(C)cc2C)C(c2ccc([N+](=O)[O-])cc2)n2ncnc2N1 (stereo unspecified)	i	-2.8
CC(C)c1ccc(NC(=O)[C@H](Cc2c[nH]c3ccccc23)NC(=O)[C@@H]2Cc3ccccc3CN2)cc1	-8.2*	1.7*
CCCN1CCC(=O)N([C@H](COc2ccccc2)c2ccccc2)CC1	i	-1.2
COc1ccc(CCNC(=O)CN(Cc2ccc(Cl)cc2)S(C)(=O)=O)cc1	i	0.66
Cc1cc(C(=O)NCc2cc(C)n(C)n2)sc1-c1ccccc1	i	-1.7
CCc1cc2cc(C(=O)Nc3ccccc3F)sc2s1	i	-0.39
Cc1ccc(C(=O)Nc2ccc(CN3CCCCC3)cc2)c(C)c1	i	0.4
CCCCCCCCCCCCN1C(=O)CSC1c1cccnc1 (stereo unspecified)	-6.5*	-0.91*
COc1ccc(CCn2c(=N)c(C(=O)NCc3ccco3)cc3c(=O)n4cccc(C)c4nc32)cc1	i	-3
Cc1cc(/C=C2/NC(=O)N(Cc3ccccc3F)C2=O)c(C)n1C	i	1
Cn1c(Cn2c(=O)sc3ccccc32)nnc1SCC(=O)N1CCN(c2ccccc2)CC1	i	0.26
CCCCC(=O)OCC(=O)N1N=C(c2c[nH]c3ccccc23)C(O)C1c1ccc(OC)cc1 (stereo unspecified)	i	-1.3
CNC(=S)N1CCN(c2ccccc2OC)CC1	i	0.07
CC(=O)c1ccc(N2C(=O)[C@@H]3C(CCC(N)=O)NC4(C(=O)Nc5c4ccc(Cl)c5C)[C@@H]3C2=O)cc1 (stereo partly specified)	i	0.89
COc1ccc(-c2noc3c2-c2nc(-c4ccc(C)cc4)sc2CC3)cc1	i	0.09
CCOC(=O)c1sc(NC(=O)CNC(=O)Cn2cnc3sc(C)c(C)c3c2=O)nc1C	i	-0.07
COc1ccc(S(=O)(=O)N(CC(=O)NC2CC2)C2CCCCC2)cc1Cl	i	-0.96

Sorted by number of heavy atoms (lowest first): some entries from above.
SMILES	KCNQ2 inh	KCNQ2 inh baseline
CC(=O)c1cnc2ncnn2c1C	i	-0.33
CNC(=S)N1CCN(c2ccccc2OC)CC1	i	0.07
CN1C(=O)c2cccc3c(N(C)C)ccc(c23)C1=O	i	7.8
CC(C)C(=O)Nc1nc(-c2ccc([N+](=O)[O-])cc2)cs1	i	6
COCC(=O)Nc1c(C(=O)N2CCCC2)oc2ccccc12	i	0.51
OCc1ccc(OCCCOc2cccc3cccnc23)cc1	i	0.09
Cc1cc(/C=C2/NC(=O)N(Cc3ccccc3F)C2=O)c(C)n1C	i	1
Cc1cccc(OCCOC(=O)c2c(-c3ccccc3)noc2C)c1	i	-0.88
CN(Cc1ccc(F)cc1)C(=O)COc1ccccc1-c1ccccc1	i	-0.43
Cc1c(S(=O)(=O)N2CCN(c3ccc(F)cc3)CC2)c(=O)n(C)c(=O)n1C	i	1.4
COCCn1cnc2c(c1=O)c1nc3ccccc3nc1n2/N=C/c1ccco1	i	-0.35
Cn1c(N)c(C(=O)CSc2nnc(-c3ccccc3F)n2C2CC2)c(=O)n(C)c1=O	i	1.2
COc1ccccc1N(C(=O)c1ccncc1)c1nc(-c2ccc([N+](=O)[O-])cc2)cs1	i	-2.3
COc1cc(C(=O)NCCCNc2nc3c(C)cc(C)cc3cc2C#N)cc(OC)c1OC	i	3
Cc1nc2c(c(=O)n1CCC(C)C)c1nc3ccccc3nc1n2Cc1ccc2c(c1)OCO2	-6.3*	0.7*

Other compounds follow:
SMILES	KCNQ2 inh	KCNQ2 inh baseline
CCNC(=S)N1CCN(c2cccc(C(F)(F)F)c2)CC1	i	-0.26
COc1ccc(CNC(N)=O)cc1	i	-0.05
Cn1c2c(c(=O)n(C)c1=O)[C@@H]1c3c(ccc4ccccc34)OC[C@@H]1CO2	i	-1.2
Cn1cccc1C(=O)OCc1ccc(C(C)(C)C)cc1	i	0.1
Cc1ccc(CN(Cc2cc3cccc(C)c3[nH]c2=O)C(=S)NCCCN(C)C)cc1	i	-0.9
Cc1ccc(C(=O)Nc2c3c(nn2C(C)(C)C)CS(=O)(=O)C3)cc1C	i	-0.73
CNC(=S)Nc1ccc2nc(C)c(C)nc2c1	i	0.17
O=C(CN1CCc2ccccc2C1)Nc1cc(S(=O)(=O)N2CCOCC2)ccc1N1CCOCC1	i	0.08
CC1(C)c2ccccc2-c2nc3ccccc3cc2C1O (stereo unspecified)	i	0.15
O=C(Nc1ccccc1-c1nnc(SCc2ccccc2)o1)c1ccccc1	i	0.17
CN(C)c1ccc(/C=N/Nc2nc3ccccc3o2)cc1	i	0.74
COc1cccc(C(=O)C2CCCN(CC3=Cc4cc(OC)ccc4OC3)C2)c1 (stereo unspecified)	i	0.37
Cc1cccc(NC(=O)[C@@H](CC(C)C)NC(=O)[C@@H]2Cc3ccccc3CN2)c1	i	-0.46
COc1ccc(Cc2nnc(NC(=O)c3ccc(OC(C)=O)cc3)s2)cc1OC	i	2.2
Cc1cc(C)c(NC(=O)CN2C(=O)CC(C)S(=O)(=O)c3ccccc32)c(C)c1 (stereo unspecified)	i	-0.57
Cc1ccc(C)c(N2CCN(C(=O)Cc3ccc(NC4=NC5CS(=O)(=O)CC5S4)cc3)CC2)c1 (stereo unspecified)	i	0.65
C[C@H](NC(=O)C1CCN(S(=O)(=O)c2ccccc2)CC1)C(=O)NCc1ccc(Cl)c(Cl)c1	i	0.02

Copied from the list:
KCNQ2 inh baseline with `CNC(=S)Nc1ccc2nc(C)c(C)nc2c1` reads 0.17
KCNQ2 inh baseline with `Cc1ccc(C(=O)Nc2c3c(nn2C(C)(C)C)CS(=O)(=O)C3)cc1C` reads -0.73

From PubChem BioAssay
